Bioassay records deposited in PubChem BioAssay by ICCB-Longwood Screening Facility, Harvard Medical School.
GIV-Gai inh – inhibitors of GIV GBA-motif binding to rat Galpha-i3; P08753; Galpha-i3/FITC-GIV peptide fluorescence polarization, 90 min; hits give low values; scaled: aluminum fluoride 0%, vehicle 100%; percent of control (FP), % (test concentration not listed); actives 0.42% (n = 210,000);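 active = replicate mean at 85% of control or lower, very high polarization wells dropped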;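 note: wells of about 15 µL received 100 nL stock; the first replicate is given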
Target sequence (P08753 whole entry, looked up): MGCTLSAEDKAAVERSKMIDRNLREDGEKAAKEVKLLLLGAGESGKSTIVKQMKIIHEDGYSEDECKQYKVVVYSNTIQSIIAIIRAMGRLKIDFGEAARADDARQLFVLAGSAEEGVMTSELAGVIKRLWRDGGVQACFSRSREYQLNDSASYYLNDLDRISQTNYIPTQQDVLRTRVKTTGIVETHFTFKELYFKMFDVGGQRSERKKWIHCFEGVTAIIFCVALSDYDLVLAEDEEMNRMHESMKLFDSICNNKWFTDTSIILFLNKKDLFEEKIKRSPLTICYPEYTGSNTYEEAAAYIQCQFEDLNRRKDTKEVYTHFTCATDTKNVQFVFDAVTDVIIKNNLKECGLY
HCMV NEC inh – inhibitors of HCMV UL50-UL53 nuclear egress complex interaction; HTRF UL50-UL53 interaction, normalized percent inhibition; inhibition, % (test concentration not listed); actives 0.15% (n = 190,000); AID 1918969;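 active = both replicates at 50% or more, plus weaker picks with an unusually low signal ratio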;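 note: stock transfer was 100 nL into about 20 µL; 0% = negative control wells and 100% = wells with untagged competitor protein; inactives centre near -12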
Sa growth 42C – blocks Staphylococcus aureus growth; AID 720641; actives 0.53% (n = 170,000); S. aureus RN4220 growth, OD600, 20 h, 42 °C; hits give low values; relative growth, % (test concentration not listed);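 active = growth at 42 °C up to 50% and 20 or more points under that at 30 °C, or under 10% at both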;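 note: 300 nL library stock went into each well; scaled to the means of positive and negative controls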
Sa growth 42C second temp – also measured in Sa growth 42C; calls as there; relative growth, %; measured here: growth at 30 °C;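 optical density after 20 h as mean of two plates; 100% = untreated growth and lower means inhibition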
Numbers without * were called inactive; . = no result given.

compound | HCMV NEC inh | Sa growth 42C | Sa growth 42C second temp | GIV-Gai inh
CCC(=O)N1CCc2cc(Br)cc(S(=O)(=O)N3CCCC(C(=O)NCc4ccc(C)cc4)C3)c21 (stereo unspecified) | 10 | 106 | 96 | 101
CCOC(=O)c1cc(NC(=O)c2ccccc2)c(=O)n2c1oc1ccccc12 | . | 100 | 86 | 105
COc1cccc(-c2noc(CCC(=O)N3CCCC3)n2)c1 | -7 | 101 | 92 | 107
COc1ccc(CCn2c(=O)c3cccnc3n(CC(=O)Nc3ccc(C)cc3C)c2=O)cc1OC | -35 | 105 | 91 | 102
O=C(c1ccccc1)N1CCN(c2cc(=O)n3nc(-c4ccccc4)sc3n2)CC1 | 17 | . | . | 103
Cc1ccc(-c2nc3sccn3c2Nc2ccc3c(c2)OCCO3)cc1 | -3 | . | . | 108
Cc1ccc(S(=O)(=O)N(c2nc(NC(C)C)nc(NC(C)C)n2)n2cnnc2)cc1 | . | 86 | 55 | 102
O=C(Nc1nc2n(n1)C(c1ccc(F)cc1)C=C(c1ccccc1)N2)c1ccco1 (stereo unspecified) | -51 | 107 | 78 | 130
Cc1[nH]c(C)c(S(=O)(=O)N2CCC(C(=O)N3CCN(c4ccccc4)CC3)CC2)c1C(=O)N1CCCCC1 | 0 | . | . | 105
c1cncc(-c2nnc3sc(Cc4ccc5c(c4)OCCO5)nn23)c1 | -18 | . | . | 111
Cc1ccc(C=Nc2ccc(N=Cc3ccc(C)s3)cc2)s1 | -4 | 108 | 81 | .
CCC(C(=O)Nc1ccccc1OC)n1c(C(=O)OC)cc2sc(Cl)cc21 (stereo unspecified) | 2 | 91 | 96 | 108
c1ccc(-c2cn3cccnc3n2)cc1 | -35 | 89 | 79 | 101
O=C(O)CCCC[C@@H]1CCSS1 | 11 | . | . | 89
COc1ccc2c(c1)-c1c(ssc1=S)C(C)(C)N2 | -69 | 99 | 70 | .
CC(C)N(Cc1ccccc1)C(=O)[C@H]1[C@@H]2C[C@@H]3[C@H]1C(=O)O[C@@H]3C2 | -13 | 95 | 77 | 99
Cc1nn(CC(=O)Nc2cccc(N3CCn4c(nc5cc(Cl)ccc54)C3)c2)c(=O)c2ccccc12 | 5 | . | . | 101
CCOc1ccc(CCNC(=O)C(C)N2C(=O)CC(C)(C)Sc3ccccc32)cc1 (stereo unspecified) | . | 97 | 78 | 99
C=CCOc1cccc(C(Nc2cccc(C)n2)c2ccc3cccnc3c2O)c1 (stereo unspecified) | -8 | 92 | 89 | 100
Cc1cccc(Cn2c(=O)n(Cc3ccco3)c(=O)c3ccccc32)c1 | 3 | 93 | 94 | 102
COc1cccc(NC(=O)NCc2noc3ccccc23)c1 | 2 | 93 | 96 | 104
Cc1nc2c(C(=O)NCc3ccccc3Cl)c[nH]n2c(=O)c1Cc1cccc(Cl)c1 | -46 | 0.6* | 0.3* | 104
COc1ccc(Nc2oc(/C=C/c3ccc(OC)c(OC)c3)nc2C#N)cc1 | 5 | 80 | 88 | 98
Cc1[nH]nc2c1C(=O)CC(C)(C)C2 | -7 | 103 | 108 | 112
COc1ccc(C2=NN(C(=O)c3ccccc3O)C(O)(C(F)(F)F)C2)cc1 (stereo unspecified) | . | 119 | 63 | 105
CC(=O)Nc1ccc(NC(=O)C(C)C)nc1 | -22 | 88 | 78 | 102
C[n+]1ccc(/C=C/c2cccs2)cc1 | -55 | 80 | 93 | .
Cc1ccccc1S(=O)(=O)Cc1ccc(C(=O)NCCN2CCN(c3cccc(Cl)c3)CC2)o1 | 9 | 93 | 30 | 104
COc1ccc(S(=O)(=O)/N=C2/NC(=O)/C(=C3/C(=O)N(C)c4ccccc43)S2)cc1 | -13 | . | . | 105
CN(Cc1ccccc1)C(=O)C1CCCN(Cc2ccc(Cl)cc2)C1 (stereo unspecified) | . | 92 | 76 | 103
Cc1cc(=O)n2c3c(cc(S(=O)(=O)N(C)c4ccccc4)cc13)CCC2 | -11 | 101 | 92 | 94
Cc1cc2nc(N3CCc4ccccc4C3)c3ccccc3n2n1 | 17 | 95 | 102 | .
Cc1cccc(NC(=O)c2cn(-c3ccccc3)nc2-c2ccccc2)c1 | 8 | . | . | 104
Cc1ccc(C2C(C(=O)c3ccco3)=C(O)C(=O)N2c2ccccn2)cc1 (stereo unspecified) | -49 | 105 | 84 | .
O=C(Nc1ccccc1)N1CCN(c2nnc(-c3ccccc3)c3ccccc23)CC1 | . | 53 | 55 | 103
CCCCS(=O)(=O)NC1=NCN(Cc2ccco2)CN1 | . | 104 | 96 | 99
N#Cc1ccccc1-c1ccccc1C#N | -23 | 104 | 87 | 100
CCc1ccccc1NC(=O)C1CCN(S(=O)(=O)c2c(C)[nH]c(C)c2C(=O)N2CCCC2)CC1 | -7 | . | . | 102
CC(OC(=O)C1=NN(c2ccccc2)C(=O)CC1)C(=O)Nc1ccc(S(N)(=O)=O)cc1 (stereo unspecified) | -38 | 90 | 93 | .
Cc1cc(C)n(C(CC(=O)N2CCc3ccccc3C2)C(=O)O)n1 (stereo unspecified) | -37 | 122 | 81 | .
CN/N=C/c1cn(-c2ccccc2)nc1-c1cccs1 | -31 | 75 | 70 | .
COc1ccc(C2C=C(c3ccc(Br)cc3)Nc3nnnn32)c(OC)c1 (stereo unspecified) | . | 99 | 83 | 106
O=C(c1ncoc1-c1cccs1)N1CCN(C(c2ccccc2)c2ccccc2)CC1 | -4 | 90 | 74 | 104
Cc1ccc(CCC(=O)C(C#N)c2nc3ccccc3s2)o1 (stereo unspecified) | -5 | 13 | 1 | 155
Cc1ccc(NC(=O)CSc2nnc(N)s2)c(C)c1 | 5 | 96 | 109 | 106
CCN1CN=C(SCc2c(C)c(C)c(C)c(C)c2C)NC1 | -2 | 95 | 82 | 103
O=C(Cc1nc2scc(-c3ccccc3)c2c(=O)[nH]1)N1CCOCC1 | -15 | 86 | 64 | .
COc1ccc(Oc2cc3c(cc2NS(=O)(=O)c2ccc(OC)cc2)n(C)c(=O)c(=O)n3C)cc1 | -27 | . | . | 96
COc1ccc(C2CC(=O)C3=C(C2)Nc2onc(C)c2C3c2ccc(OC)cc2OC)cc1 (stereo unspecified) | -21 | . | . | 108
Cc1ccc(CN(Cc2ccco2)C(=O)c2oc3ccc(C)cc3c2C)cc1 | 4 | 88 | 79 | 107

Reprinted at random: 5 records from the list, in no set order.
compound | HCMV NEC inh | Sa growth 42C | Sa growth 42C second temp | GIV-Gai inh
CN(Cc1ccccc1)C(=O)C1CCCN(Cc2ccc(Cl)cc2)C1 (stereo unspecified) | . | 92 | 76 | 103
C[n+]1ccc(/C=C/c2cccs2)cc1 | -55 | 80 | 93 | .
Cc1cccc(NC(=O)c2cn(-c3ccccc3)nc2-c2ccccc2)c1 | 8 | . | . | 104
COc1ccc(C2C=C(c3ccc(Br)cc3)Nc3nnnn32)c(OC)c1 (stereo unspecified) | . | 99 | 83 | 106
Cc1ccc(CCC(=O)C(C#N)c2nc3ccccc3s2)o1 (stereo unspecified) | -5 | 13 | 1 | 155

Carrying on.
compound | HCMV NEC inh | Sa growth 42C | Sa growth 42C second temp | GIV-Gai inh
O=S1(=O)C=CC(Nc2ncnc3c2oc2ccccc23)C1 (stereo unspecified) | -31 | 102 | 83 | .
CCN(C(=O)c1oc2ccc(S(=O)(=O)N3CCCCCC3)cc2c1C)c1ccccc1 | . | 102 | 100 | 106
CC(=O)Nc1ccc(NC(=O)c2c(C)nn(-c3ccccc3)c2-n2cccc2)cc1 | -8 | 93 | 85 | 102
CCCc1nnc(NC(=O)C(CC)Sc2nnc3c(n2)[nH]c2ccccc23)s1 (stereo unspecified) | . | 90 | 87 | 98
Cc1oc2ncnc(N3CCCCC3)c2c1C(=O)Nc1cccc(Cl)c1C | . | 124 | 106 | 104
O=c1cnnc(N2CCCCC2)[nH]1 | -23 | 83 | 99 | 95
CCNC(=O)c1cccc(NC(=O)CCCc2nc3ccccc3c(=O)[nH]2)c1 | -6 | 105 | 95 | .
O=c1cnn(Cc2cccc(C(F)(F)F)c2)c2ccccc12 | -95 | 103 | 100 | .
Cc1ccc2c(c1)c1nc3n(c(=O)c1n2CC(=O)NCc1ccco1)CCS3 | -21 | 103 | 79 | 104
COc1ccc(C2C(C(=O)Nc3cccc(C)n3)c3ccccc3C(=O)N2C)cc1 (stereo unspecified) | -29 | 97 | 81 | 104
COc1ccc(OC)c(C2C3=C(CC(c4ccc(O)c(OC)c4)CC3=O)Nc3onc(C)c32)c1 (stereo unspecified) | -20 | . | . | 108
Cc1ccc(NCc2nnc(SCc3cc(C)ccc3C)o2)c(C)c1 | 7 | 110 | 95 | 108
Cc1ccc(Cn2c(SCC(C)C)nc3c2c(=O)n(C)c(=O)n3C)cc1 | 1 | 98 | 97 | 104
CCN(c1ccccc1)c1nc2nonc2nc1N(C)C | -37 | 94 | 84 | 102
Cc1cc(C)c(-c2cc(C(F)(F)F)nc(-c3ccccc3)n2)c(=O)[nH]1 | 4 | 90 | 98 | 104
O=C(Nc1cccc2c1CCCC2)c1ccc(-n2nnc3cccnc32)cc1 | -20 | . | . | 118
O=C(c1cc(C2CC2)[nH]n1)N1CCN(c2ccc(Cl)cc2)CC1 | -8 | . | . | 104
O=C1c2ccccc2NC(c2ccccc2)N1CCCN1CCOCC1 (stereo unspecified) | -3 | 93 | 96 | 104
S=C(Nc1ccccc1)Nc1nc2ccccc2n1Cc1ccc(Cl)cc1 | . | 96 | 101 | 99
Cc1ccc(CN2C(=O)c3ccccc3Sc3ccc(C(=O)NC4CCCCC4)cc32)cc1 | . | 123 | 97 | 101
CN(Cc1ccco1)C(=O)c1noc2c1CSc1ccccc1-2 | -15 | 82 | 75 | 101
O=C(c1ccc(N2CCN(c3cccc(Cl)c3)CC2)nn1)N1CCc2ccccc21 | -19 | . | . | 100
Cc1c(Cl)cccc1NC(=O)c1ccc2c(c1)nnn2C1CCCC1 | . | 102 | 97 | 107
Cc1ccc(Cl)c(C(=O)NC2=CC(=O)CC(C)(C)C2)c1 | 2 | 91 | 91 | .
COc1ccc(CNC(=O)c2ccc(-c3nc(CSc4ccccc4)c(C)o3)cc2)cc1OC | . | 114 | 87 | 103
Cc1cc(=O)n2c3ccccc3nc2n1Cc1ccccc1 | 7 | 89 | 94 | 102
CCOC(=O)c1cccc2c1N[C@@H](c1ccc(F)cc1)[C@H]1CC=C[C@@H]21 | -13 | 84 | 77 | 110
COc1ccc(-c2cc(C(=O)Nc3ccccc3)nn2C2CCS(=O)(=O)C2)cc1 (stereo unspecified) | -12 | . | . | 107
C=CCn1cnc2scc(-c3ccccc3)c2c1=O | -4 | 117 | 77 | 106
CC(C)C(=O)NNc1cc(C(F)(F)F)ccn1 | -18 | 96 | 92 | 109
CCS(=O)(=O)c1ccc2oc(SCc3ccc(F)cc3)nc2c1 | -4 | 104 | 85 | .
CN(C)c1ccc(/C=C2\Sc3ccc4ccccc4c3C2=O)cc1 | -13 | . | . | 110
COCCNc1sc(S(=O)(=O)c2ccc(C)cc2)nc1S(=O)(=O)c1ccc(C)cc1 | 7 | 102 | 89 | 105
O=S(=O)(Nc1ccc(SC(F)F)cc1)c1ccccc1C(F)(F)F | -10 | 70 | 47 | .
Cc1ccc(-c2nc3c4c(-c5ccccc5)c(-c5ccccc5)oc4ncn3n2)cc1 | -56 | 88 | 81 | 107
Fc1ccc(C2=Nn3cnnc3SC2)cc1 | -24 | . | . | 99
CCCN(CCC)CCCNC(=O)c1cc2c(-c3ccc(OC)c(OC)c3)nn(C)c2s1 | -12 | 79 | 97 | 107
COc1cc(-c2nc(NC3CCCCC3)c3ccccc3n2)cc(OC)c1OC | -5 | . | . | 99
CC1=C(c2ccc(C)c(C)c2)S(=O)(=O)NC1=NC1CCN(Cc2ccccc2)CC1 | -3 | . | . | 97
O=c1c2cc3c(cc2n(Cc2ccc(Cl)cc2)c(=O)n1Cc1nc(-c2ccccc2)no1)OCO3 | . | 96 | 97 | 105
Cc1ccc(S(=O)(=O)NC2CC2)cc1C(N)=O | -18 | 96 | 108 | 104
CC(C)C(=O)Nc1nsc(-c2ccc(Cl)cc2)n1 | -35 | 110 | 83 | 95
C=CCc1c(C)nc2c(OC)cccc2c1Cl | -17 | 92 | 90 | 105
Cc1ccc(C(=O)N2c3ncnn3C3(CCCCC3)[C@@H]3CCCC[C@@H]32)cc1 | -25 | 101 | 90 | 98
CC1=C(c2ccc(C)c(C)c2)S(=O)(=O)N=C1N1CCC(C(=O)NCc2ccccc2C)CC1 | . | 111 | 89 | 97
O=C(NCC(c1ccco1)N1CCCCC1)c1ccccc1C(F)(F)F (stereo unspecified) | -3 | 108 | 86 | .
Cc1ccc(-n2nnnc2C2CCN(S(=O)(=O)c3ccc(OC(F)(F)F)cc3)CC2)cc1 | 15 | 96 | 92 | 102
O=C(OC(C(=O)NCc1ccc2c(c1)OCO2)c1ccncc1)c1ccc(Cl)nc1 (stereo unspecified) | -9 | 110 | 80 | 101
CC(NC(=O)c1ccco1)c1nc(-c2ccccc2)no1 (stereo unspecified) | -38 | 95 | 81 | 101
CC1(C)CC(=O)CC(C)(C)N1OC(=O)c1ccccn1 | -2 | 106 | 86 | .

Later entries
compound | HCMV NEC inh | Sa growth 42C | Sa growth 42C second temp | GIV-Gai inh
O=C(/C=C/Sc1nc2cc(Cl)c(F)cc2[nH]1)c1ccccc1 | -21 | 104 | 85 | 104
COc1ccc(-c2cc(C(=O)N(C)C)c3ccccc3n2)cc1 | -33 | 119 | 90 | .
O=C(CC1SC(=NCc2ccccc2)NC1=O)NCc1ccccc1 (stereo unspecified) | -26 | 110 | 85 | .
O=CNc1ccccc1Oc1c(F)c(F)c(F)c(F)c1F | -1 | 115 | 105 | 101
